# Mtb H37Rv = Confirmatory growth inhibition assay against Mycobacterium tuberculosis H37Rv, potency (AID 1949); most inactive calls were filed without a number and no value below 0 was filed; inhibition, % at 10 µg/mL, or IC50 in µg/mL where a hit was titrated; actives 1.6% (n = 100,000);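 active = confirmed in a dose series; inconclusive = about 50% or more but not retested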;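 also: bacteria grown 7 days with compound before Alamar blue readout; 0% = untreated bacteria and 100% = reference antibiotic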
# The depositor's hits bear a star; i = inactive; u = inconclusive.
# The opening 19 records, ahead of the listing:
SMILES,Mtb H37Rv
CCCOc1ccc(C(=O)Nc2cccc3c2C(=O)N(C)C3=O)cc1,i
COCc1cc(C)nc2sc(C(=O)N3CCCCC3)c(N)c12,i
CCOc1ccc(OCCCNC(C)(C)C)cc1,i
Cc1ccc(NS(=O)(=O)c2cccc3ccccc23)cc1C,i
COc1ccc(N2CCN(Cc3nc(-c4ccc(C)cc4)no3)CC2)cc1,6%
Cc1cc(OCc2nc(-c3ccncc3)no2)cc(C)c1Br,i
O=C(Nc1ccccc1OC(F)F)c1cccc(I)c1,1%
CC1CN(C2CCN(Cc3cc(Br)ccc3O)CC2)CC(C)O1 (centres undefined),1%
COc1ccc(OCCSc2nc(N)cc(N)n2)cc1,1%
CC1C(C(=O)O)CC(C(=O)O)C1(C)C (centres undefined),i
CS(=O)(=O)c1ccc(S(=O)(=O)C(F)(F)F)cc1,i
Cc1noc(C)c1CSc1nnc2c(C)cc3ccccc3n12,1%
CC1CN(S(=O)(=O)c2ccc(Cl)c(S(=O)(=O)N3CC(C)OC(C)C3)c2)CC(C)O1 (centres undefined),i
COc1cccc(C(=O)N(C)C)c1OC,i
CCc1cccc(C)c1NC(=O)CSc1nnc(C(C)NC(=O)c2ccccc2Cl)n1C (centres undefined),i
Cn1ccc(NC(=S)Nc2ccc(Br)cc2Cl)n1,i
COc1ccc(C(=O)O)cc1NC(=S)NC(=O)c1ccccc1,i
O=C(Nc1nncs1)c1ccc(Br)c(S(=O)(=O)N2CCCC2)c1,i
CCCCOc1ccccc1NC(=O)c1cccc(Br)c1,i

# The listing, from the first entry:
SMILES,Mtb H37Rv
CCCOc1ccc(C(=O)Nc2cccc3c2C(=O)N(C)C3=O)cc1,i
COCc1cc(C)nc2sc(C(=O)N3CCCCC3)c(N)c12,i
CCOc1ccc(OCCCNC(C)(C)C)cc1,i
Cc1ccc(NS(=O)(=O)c2cccc3ccccc23)cc1C,i
COc1ccc(N2CCN(Cc3nc(-c4ccc(C)cc4)no3)CC2)cc1,6%
Cc1cc(OCc2nc(-c3ccncc3)no2)cc(C)c1Br,i
O=C(Nc1ccccc1OC(F)F)c1cccc(I)c1,1%
CC1CN(C2CCN(Cc3cc(Br)ccc3O)CC2)CC(C)O1 (centres undefined),1%
COc1ccc(OCCSc2nc(N)cc(N)n2)cc1,1%
CC1C(C(=O)O)CC(C(=O)O)C1(C)C (centres undefined),i
CS(=O)(=O)c1ccc(S(=O)(=O)C(F)(F)F)cc1,i
Cc1noc(C)c1CSc1nnc2c(C)cc3ccccc3n12,1%
CC1CN(S(=O)(=O)c2ccc(Cl)c(S(=O)(=O)N3CC(C)OC(C)C3)c2)CC(C)O1 (centres undefined),i
COc1cccc(C(=O)N(C)C)c1OC,i
CCc1cccc(C)c1NC(=O)CSc1nnc(C(C)NC(=O)c2ccccc2Cl)n1C (centres undefined),i
Cn1ccc(NC(=S)Nc2ccc(Br)cc2Cl)n1,i
COc1ccc(C(=O)O)cc1NC(=S)NC(=O)c1ccccc1,i
O=C(Nc1nncs1)c1ccc(Br)c(S(=O)(=O)N2CCCC2)c1,i
CCCCOc1ccccc1NC(=O)c1cccc(Br)c1,i
Cc1cc(=O)[nH]c(/N=C(/NC(=O)c2ccccc2)Nc2ccccc2)n1,i
COc1ccc(NS(=O)(=O)c2ccc(CC(C)C)cc2)cc1,2%
CCOc1ccccc1CNCC1CCCO1 (centres undefined),i
CCn1c(SCC(=O)Nc2ncccc2C)nnc1C(NC(=O)c1cccc(C)c1)C(C)C (centres undefined),i
CCC(=O)Nc1ccc(Cl)c(NC(=S)NC(=O)c2ccc(OC)c(Br)c2)c1,i
O=C(NCC1CCCO1)C1C2C3CCC(C3)C12 (centres undefined),i
O=S(=O)(c1ccccc1)N1CCCN(S(=O)(=O)c2ccccc2)CC1,i
O=C(Nc1ccc(Cl)c(C(=O)O)c1)NC1CCCCC1,i
Cc1ccc2cccc(OCCOc3cccc(C(F)(F)F)c3)c2n1,7%
O=C(c1ccco1)N1CCN(C(=O)c2ccccc2Cl)CC1,i
Cc1cc(Cl)c(S(=O)(=O)NC2CCCC2)cc1OCC(N)=O,i
CCOc1ccc2nc(NC(=O)c3ccc(C)c(C)c3)sc2c1,i
COc1ccccc1-c1c(C)oc2cc(OCC(=O)c3ccc(Cl)cc3)ccc2c1=O,2%
Cc1ccc(SCC(=O)Nc2nc(-c3ccccc3)c(C)s2)cc1,i
Cc1ccc(S(=O)(=O)NCC(=O)OCc2ccccc2Br)cc1,i
COc1ccc(OCC(=O)Nc2cccc(N(C)S(C)(=O)=O)c2)cc1,5%
COc1ccc(Br)cc1S(=O)(=O)N1CCC(C(N)=O)(N2CCCCC2)CC1,i
Cc1ccc(N(Cc2ccc(C(=O)Nc3c(C)n(C)n(-c4ccccc4)c3=O)cc2)S(C)(=O)=O)cc1C,i
O=C(CC1NCCNC1=O)Nc1ccccc1 (centres undefined),i
O=C(NC1CCCCC1)N1CCc2ccccc21,i
N#CSc1ccc(NS(=O)(=O)c2ccccc2)cc1Cl,i
C=CCNC(=O)c1c(NC(=O)c2ccc(F)cc2)sc2c1CCCC2,1%
Cc1nc(-c2ccccc2)c(NC(=O)c2ccccc2)s1,i
CC(Sc1ccccn1)C(=O)Nc1ccc(Cl)cc1 (centres undefined),i
N/C(=N\OC(=O)COc1ccc([N+](=O)[O-])cc1)c1ccncc1,i
COc1ccccc1-c1coc2cc(OC(=O)CCC3CCCC3)ccc2c1=O,i
CCc1cc2c(=O)c(-c3nc4ccccc4s3)coc2cc1O,7%
O=C(Nc1ccc(N2CCOCC2)cc1)c1sc2cc(Cl)ccc2c1Cl,1%
COc1ccc(C(=O)Nc2ccc(S(=O)(=O)N3CCOCC3)cc2)cc1OC,13%
CCN(C(=O)COc1ccccc1)C1C2CC3CC(C2)CC1C3 (centres undefined),9%
CCc1ccc(OCCNC(=O)c2cccs2)cc1,i
CN1C(c2ccccc2)CC(O)(C#Cc2ccccc2)CC1c1ccccc1 (centres undefined),46%
Cc1ccc(OCC(O)CN2CC(C)OC(C)C2)c(C)c1 (centres undefined),8%
CC(=O)C(C)n1cnc2scc(-c3ccc(C)cc3)c2c1=O (centres undefined),2%
COc1ccc(CCn2c(N)c(Br)c(=O)[nH]c2=O)cc1OC,i
CS(=O)(=O)NCCSCc1cccc(Cl)c1,i
O=C(CSc1ncn[nH]1)NC1CC2CCC1C2 (centres undefined),i
COc1cc(C)c(S(=O)(=O)N2CCN(S(=O)(=O)c3cc(C)c(OC)cc3C)C(C)C2)cc1C (centres undefined),i
O=C(NCCc1ccccc1)c1cc(-c2ccccc2)on1,i
OC(COc1ccc2cc(Br)ccc2c1)CN1CCCC1 (centres undefined),i
FC(F)(F)c1ccccc1-n1c(-c2cccnc2)n[nH]c1=S,i

# Further structures follow:
SMILES,Mtb H37Rv
Cc1cc(C)c(C)c(S(=O)(=O)NCCc2c(C)[nH]c3ccccc23)c1C,11%
COc1ccc([N+](=O)[O-])cc1CSc1nnc(-c2ccccc2)n1-c1ccccc1,i
CCc1cccc(CC)c1NC(=O)Cn1cnc2sc3c(c2c1=O)CCC(C)C3 (centres undefined),i
Cc1ccc(S(=O)(=O)N(C)C)cc1NC(=O)C12CCC(C)(C(=O)C1)C2(C)C (centres undefined),i
Cc1ccc(C(=O)Nc2ccccc2C(C)(C)C)cc1,1%
CCOc1ccc(NC(=O)C(=S)NC2CCCCC2)cc1,3%
COc1ccc(-c2nc3ccccc3c(C(=O)NCc3cccs3)c2C)cc1,i
O=C(COc1ccc(Cl)cc1)Nc1nc(-c2ccc(Br)cc2)cs1,0%
O=C(CN1C(=O)c2ccccc2C1=O)Nc1ccc(Cl)c(Cl)c1,i
O=[N+]([O-])c1ccc2nonc2c1NCc1ccccc1,i
C=CCc1c(C)nc(SCC(=O)Nc2cc(Cl)ccc2Oc2ccccc2)[nH]c1=O,i
COCCSc1ccccc1C(=O)Nc1ccc(S(=O)(=O)Nc2ccc(C)cc2)cc1,i
CC(=O)OCC#CCSc1nc2ccccc2c(=O)[nH]1,i
Nc1cc2c3c(cccc3c1)C(=O)N(O)C2=O,8%
COc1ccc(OC)c(N2C(=O)CC(Cc3ccc(C)cc3)C2=O)c1 (centres undefined),i
COc1ccc2c(c1)OCC/C2=N/OC(=O)c1ccc(C(C)(C)C)cc1,i
O=C(CNC(=O)c1ccco1)OC(c1ccccc1)c1ccccc1,i
Cc1cc(NS(=O)(=O)c2ccc(N3CCCC3=O)cc2)no1,i
CC(C)NC(=O)c1ccccc1NC(=O)CCS(=O)(=O)Cc1ccccc1,2%
COc1cccc(OC)c1C(=O)Nc1ccc(I)cc1Cl,i
Cc1cc(OC(=O)Nc2ccccc2)c(C(C)C)cc1I,i
COc1cc([N+](=O)[O-])ccc1-n1c(C)cc(C=O)c1C,i
Cc1ccc(C(=O)Nc2sc3c(c2C(N)=O)CCCC3)c(Cl)c1,i
COc1cccc(NC(=O)C(=O)NCc2ccccc2C)c1,i

# A second format for some results above.
compound	Mtb H37Rv
Cc1cc(OC(=O)Nc2ccccc2)c(C(C)C)cc1I	i
COc1cc([N+](=O)[O-])ccc1-n1c(C)cc(C=O)c1C	i

# (listing goes on)
SMILES,Mtb H37Rv
Cc1cc(NC(=O)CNC(=O)C2CCCCC2)no1,i
CCCn1nnc(NC(=O)c2ccccc2[N+](=O)[O-])n1,4%
Cc1ccccc1OCc1nnc(SC(C)C(=O)Nc2nccs2)n1Cc1ccccc1 (centres undefined),i
COc1ccc(-c2nc(NC(=O)CSc3n[nH]c(N)n3)ns2)cc1,i
COC(=O)c1cc(NC(=S)NCc2ccc3c(c2)OCO3)cc(C(=O)OC)c1,1%
O=c1[nH]c2ccc(S(=O)(=O)N3CCCC3)cc2[nH]1,3%
Cc1cc(=O)[nH]c(Nc2ccc(O)cc2)n1,i
COc1ccc(OCC(O)CN2CCN(c3cccc(Cl)c3)CC2)cc1 (centres undefined),10%
COc1ccc(C2C(C#N)=C(N)Oc3n[nH]c(C)c32)cc1CSc1ccccn1 (centres undefined),1%
CC(=O)N1c2cc(C)cc(C)c2C2OCCC2C1c1cccs1 (centres undefined),i
O=[N+]([O-])c1ccc(S(=O)(=O)N2CCOCC2)cc1,i
Cc1ccc2cc(S(=O)(=O)Nc3c(C)n(C)n(-c4ccccc4)c3=O)ccc2c1,i
Cc1ccc(S(=O)(=O)NCC(=O)Nc2ccc(S(N)(=O)=O)cc2)cc1,i
O=C(CSc1n[nH]c(-c2ccc(Cl)cc2)n1)Nc1ccc(F)c(Cl)c1,39µg/mL*
CCOCCCNC(=O)CCc1ccc(S(=O)(=O)Nc2ccc(C)cc2)cc1,i
CCOC(=O)c1ccccc1NS(=O)(=O)c1ccc(SC)cc1,i
COC(=O)c1c(NC(=O)CC2Nc3ccccc3NC2=O)sc2c1CCC(C(C)(C)C)C2 (centres undefined),i
COCCNC(=S)N1CCN(C(c2ccccc2)c2ccccc2)CC1,i
COc1ccc(NC(=O)CCN2C(=O)c3ccc([N+](=O)[O-])cc3C2=O)c(OC)c1,i
COc1ccc(C2(CNC(=O)C3CCCCC3)CCCC2)cc1OC,i
Cc1cc(OCC(=O)Nc2ccccc2Cl)ccc1Br,i
O=C(Nc1ccc(N2CCN(Cc3ccccc3)CC2)cc1)c1cccc(Cl)c1,i
O=C1c2ccccc2C(=O)N1CCCOc1ccccc1,i
Cc1ccc(CN(CC(=O)NCc2ccncc2)S(=O)(=O)c2ccc(C)cc2)cc1,i
C=CCOc1c(Cl)cc(CNC2CCCCC2)cc1OC,i
COc1ccccc1N1CCN(C2CCN(Cc3cccnc3)CC2)CC1,i
COc1cc(C=O)ccc1OC(=O)c1cccnc1,i
O=[N+]([O-])c1cccc(C(=S)N2CCN(c3ccc(F)cc3)CC2)c1,i
O=C(c1ccc([N+](=O)[O-])o1)N1CCN(Cc2ccccc2)CC1,u
Cc1c(Cl)cccc1NC(=S)NCCN1CCOCC1,i
Cc1n[nH]c(C)c1C(=O)CC1(O)C(=O)Nc2ccccc21 (centres undefined),i
O=C(COc1ccc(S(=O)(=O)NC2CCCCC2)cc1)N1CCc2ccccc2C1,i
Cc1ccc(C)c(OCC(=O)Nc2cc(C(F)(F)F)ccc2Cl)c1C,i
Cc1cc(C)n(-c2ccc3nncn3n2)n1,3%
Cc1ccc(-c2nn(C)c(=O)c3ccccc23)cc1S(=O)(=O)N1CCC(C)CC1,11%
Fc1cnc(N2CCOCC2)nc1N1CCOCC1,2%
C=C1C2(C(=O)Nc3cc(C)cc(C)c3)CCC(C2)C1(C)C (centres undefined),0%
CCOc1cc(CNCc2cccnc2)cc(Cl)c1OCc1cccs1,7%
CC(=O)c1ccc(COC(=O)c2ccc(-c3nnc(-c4ccccc4)o3)cc2)cc1,i
COc1cc(NC(=O)CCN2CC(C)OC(C)C2)cc(OC)c1 (centres undefined),i
CCOc1ccc(CNc2nc(N)n(-c3ccccc3)n2)cc1,i
O=C(CSc1nnc(NC(=O)c2ccccc2Cl)s1)Nc1ccc([N+](=O)[O-])cc1,2%
COc1ccc(N2CCN(C(=O)C3CCN(S(=O)(=O)c4ccc(C)cc4)CC3)CC2)cc1,i
Cc1cc(C(=O)NCC2CCCO2)c2cc(F)ccc2n1 (centres undefined),i
Cc1cc(OCC(=O)N2CCCc3ccccc32)ccc1Cl,i
CCOc1ccc(S(=O)(=O)NCCSCc2ccc(C)cc2)cc1,0%
Cc1cc(Cl)c(OCCN2CCOCC2)c(Br)c1,i
Cc1ccc(C(=O)Nc2ccc(NC(=O)c3cccc(Cl)c3)cc2)cc1[N+](=O)[O-],1%
Cc1ccccc1NC(=O)c1c(NC(=O)C(C)(C)C)sc2c1CCCCC2,3%
COc1cc(CNCCCN2CCOCC2)cc(Br)c1OCC(=O)N1CCCCC1,i
COc1ccc(Nc2oc(COc3ccc(Cl)cc3)nc2C#N)cc1,i
Cc1cc(Cl)ccc1OCC(=O)NC1CCN(C)CC1,3%
CN(CC(=O)Nc1ccccc1Cl)S(=O)(=O)c1ccc2ccccc2c1,i
COC(=O)Cc1c(C)c2cc(Cl)c(OCc3ccc([N+](=O)[O-])cc3)cc2oc1=O,i
O=C(Nc1ccc(CN2CCOCC2)cc1)c1cc2ccccc2o1,2%
CCOC(=O)c1ccc(NC(=S)N2CCN(c3ccccc3OCC)CC2)cc1,i
COc1ccccc1-n1c(SCC(N)=O)nc2ccc(I)cc2c1=O,i
O=C(Cc1cccs1)NCc1ccccc1Br,i

# Source: PubChem BioAssay (Southern Research Institute)

# A portion of the library (hit frequency here may not be typical).
